ALR inh: inhibitors of human ALR sulfhydryl oxidase, primary screen, biochemical, H2O2 detection, HRP-luminol luminescence, single point; FAD-linked sulfhydryl oxidase ALR (Homo sapiens), P55789; purified ALR, DTT oxidation; inhibition, % (test concentration not listed); actives 3.8% (n = 290,000); AID 485317, 2010;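 active = mean and each replicate at 75% or more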;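 note: stock transfer was 7.5 nL into about 7.5 µL; 0% = neutral wells and 100% = wells with inactivated enzyme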
Target sequence (P55789 whole entry, looked up): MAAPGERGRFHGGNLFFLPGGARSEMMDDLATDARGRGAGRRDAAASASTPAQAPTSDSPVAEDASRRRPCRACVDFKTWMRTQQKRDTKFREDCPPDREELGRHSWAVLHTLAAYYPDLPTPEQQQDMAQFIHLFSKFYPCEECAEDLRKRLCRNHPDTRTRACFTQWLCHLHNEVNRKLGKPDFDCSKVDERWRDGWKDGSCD
FGF22 binding: binders of human FGF22 protein, primary screen, FGF22 synaptogenesis inhibitor project, biophysical, thermal shift, single point; Fibroblast growth factor 22 (Homo sapiens), Q9HCT0; recombinant FGF22 thermal shift, SYPRO orange fluorescence; percent of sucrose octasulfate shift, DMSO zero; calls only at 9.99 µM; actives 1.5% (n = 340,000);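 active = melting point raised past a set limit in the mean and every replicate; three in four hits are not shown here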
Target sequence (Q9HCT0 whole entry, looked up): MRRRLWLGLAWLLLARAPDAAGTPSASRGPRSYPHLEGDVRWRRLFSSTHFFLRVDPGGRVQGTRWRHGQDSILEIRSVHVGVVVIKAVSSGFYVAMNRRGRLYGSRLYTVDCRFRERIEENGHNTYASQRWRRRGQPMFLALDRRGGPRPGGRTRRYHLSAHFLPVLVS
Vif A3G: inhibitors of Vif binding to APOBEC3G peptide, primary screen, biochemical, TR-FRET, GST-Vif 1-94, biotin-A3G peptide, dose response retest (AID 1117319) | Virion infectivity factor (Human immunodeficiency virus type 1 group M subtype B (isolate … | TR-FRET GST-Vif / biotin-A3G peptide binding; higher % means a stronger effect; test concentration not given here; strong numbers were not always called active | one-dose inhibition, %; IC50 in µM for titrated hits | actives 0.57% (n = 260,000);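 active = above the screen mean plus three standard deviations and confirmed in dose response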;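 note: Vif residues 1-94 fused to GST binding biotinylated APOBEC3G peptide 110-148; 0% = full assay without inhibitor and 100% = GST in place of GST-Vif; retest series ran down from 100 µM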
rRNA inh HTS: reduced GFP signal of wild-type E. coli, primary screen, bacterial rRNA inhibitor project, GFP/RFP fluorescence, OD600, single point | actives 1.6% (n = 350,000) | E. coli WT GFP vs humanized-ribosome RFP mutants, 24 h; active compounds read low; DMSO median 0, no signal -100 | GFP signal change (wild-type ribosome), % (test concentration not listed);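 active = significant combined selectivity score with lowered wild-type GFP, culture density cut under 30%, mutant RFP and density less affected; inactive = any of these conditions unmet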; note: one replicate is shown; some compounds called inactive have numbers as strong as hits
MLL AF4-AF9 inh: inhibitors of AF4 peptide binding to AF9, primary screen, biochemical, AlphaScreen, biotin-AF4 peptide, FLAG-AF9, single point | inhibition, % at 10 µM | Protein AF-9 (Homo sapiens), P42568 | actives 0.47% (n = 350,000) | AID 651704, 2012;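 active = every replicate reaching a set inhibition limit, whatever the replicate mean, cut at about 25% in these data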;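 note: 0% = plate neutral control median and 100% = total signal loss; the record names both 10 and 1 µM as test concentration; the first replicate is given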
Ecoli growth: E. coli growth inhibition, primary screen, OD600. Escherichia coli growth, 23 h; active compounds read low. OD600 absorbance (no concentration beside the values). actives 0.21% (n = 330,000). AID 1053175, 2014;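 active = OD600 absorbance below the run mean of sample wells minus 3.6 SD, in any replicate, cut at about 0.56 in these data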;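 note: stock transfer was 300 nL into about 60 µL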
HNF4A DNA FP: change in binding of human HNF4A to DNA, primary screen, biochemical, fluorescence polarization, FITC-DNA; 1 h; actives 0.3% (n = 360,000); AID 1224865, 2016; Hepatocyte nuclear factor 4-alpha (Homo sapiens), P41235; activity change, % at 10 µM; in the data active = activity change above about 30%, passing the limit was not always enough;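 note: controls were the assay level and a saturating level of protein; the project sought stronger binding though the title names inhibitors; some compounds called inactive have numbers as strong as hits; positive values seem to mean higher polarization but the record does not say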
Target sequence (P41235 whole entry, looked up): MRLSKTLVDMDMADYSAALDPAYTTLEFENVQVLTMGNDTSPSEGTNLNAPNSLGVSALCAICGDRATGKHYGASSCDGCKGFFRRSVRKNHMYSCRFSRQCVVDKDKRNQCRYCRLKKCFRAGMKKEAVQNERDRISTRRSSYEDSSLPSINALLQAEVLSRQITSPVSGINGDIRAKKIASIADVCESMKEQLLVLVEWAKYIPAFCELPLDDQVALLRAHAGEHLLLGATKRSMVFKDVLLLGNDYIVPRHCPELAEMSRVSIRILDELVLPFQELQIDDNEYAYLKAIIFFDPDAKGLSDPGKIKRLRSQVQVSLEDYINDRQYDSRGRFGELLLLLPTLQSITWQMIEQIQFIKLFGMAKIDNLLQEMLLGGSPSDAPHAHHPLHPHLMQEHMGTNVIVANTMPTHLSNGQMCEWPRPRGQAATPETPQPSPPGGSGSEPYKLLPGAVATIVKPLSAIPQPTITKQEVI
rRNA inh HTS OD600: recorded beside rRNA inh HTS, whose call it bears; OD600 change, %; measured here: OD600 growth;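 optical density of the mix in the first replicate; 0 = DMSO median and -100 = no signal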
rRNA inh HTS RFP: further read-out of rRNA inh HTS, marked with its call; RFP signal change, %; measured here: RFP humanized mutant strains;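 first replicate; 0 = DMSO median and -100 = no signal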
Starred values were filed as active, the others as inactive; i = inactive; x = no result given; + = active, no number. An excerpt; rates above refer to the full screens.

SMILES | ALR inh | FGF22 binding | Vif A3G | rRNA inh HTS | rRNA inh HTS OD600 | rRNA inh HTS RFP | MLL AF4-AF9 inh | Ecoli growth | HNF4A DNA FP
O=S(=O)(O)c1nc2ccccc2n1CCOc1ccccc1 | 2 | x | 8% | x | x | x | x | 0.76 | -3.1
C[C@H]1CN([C@@H](C)CO)C(=O)c2cc(NC(=O)Cn3cnnn3)ccc2O[C@@H]1CN(C)Cc1ccc(C(=O)O)cc1 | x | i | x | 5 | 17 | 2.8 | -3.7 | x | x
CC(C)N(C)CCOC(=O)c1ccccc1Cl | -1 | i | 12% | -2 | 2 | -4.3 | -0.1 | 0.63 | -5.2
CCCCCCN(C(=O)CCCCCN1C(=O)NC(c2ccc(-c3ccccc3)cc2)C(C(=O)OCc2ccccc2)=C1C)C(C)C(=O)NCCCC (centres undefined) | 10 | i | x | 12 | 13 | 0.4 | 4.2 | 0.72 | x
COC(=O)c1ccccc1NC(=O)Cn1c(=O)n(Cc2ccccc2)c(=O)c2c(C)c(C)sc21 | -10 | x | -7% | x | x | x | x | 0.63 | 5.7
COc1ccc(S(=O)(=O)Nc2ccc3c(c2)C(=O)N([C@H](C)CO)C[C@H](C)[C@H](CN(C)C(=O)Nc2c(C)noc2C)OCCCC[C@H](C)O3)cc1 | x | + | x | -4 | -1 | -0.1 | -5.5 | x | x
CCCS(=O)(=O)Nc1ccc(-c2cn3c(n2)SCC3)cc1 | 5 | x | 10% | x | x | x | x | 0.73 | 0.4
Cc1cc(C(=O)Nc2cccc3c2O[C@H](CN(C)S(C)(=O)=O)[C@H](C)CN([C@@H](C)CO)C3=O)n(C)n1 | x | i | x | -1 | 5 | -1.1 | -0.7 | x | x
COCCN(CCOC)C(=O)C12CCC(C)(C(=O)C1)C2(C)C (centres undefined) | -8 | x | 26% | x | x | x | x | 0.7 | 0.5
CC1Cc2cc(-c3csc(NC(=O)CCl)n3)ccc2N1C(=O)C1CC1 (centres undefined) | x | i | x | 3 | 4 | -3.7 | 5.5 | x | -2.3
O=C(O)CCCNC(=O)/C(=C\c1ccc(Cl)cc1)NC(=O)c1ccc(Br)cc1 | 0 | x | 13% | 10 | 4 | 10.0 | -1.3 | 0.67 | 1.0
Cc1ccc(N2CCN(C(=O)CCc3nc4ccccc4[nH]3)CC2)c(C)c1 | 13 | i | 0% | -29 | -76 | -22 | -8.6 | 0.75 | 1.7
COc1ccccc1CNC(=O)C[C@@H]1CC[C@@H]2[C@H](COC[C@@H](O)CN2Cc2ccc3c(c2)OCO3)O1 | x | i | x | -1 | -11 | 0.6 | 0.3 | x | x
CC(C)C#Cc1ccc2c(c1)O[C@@H](CN(C)Cc1cncnc1)[C@H](C)CN([C@@H](C)CO)S2(=O)=O | x | i | x | -10 | -23 | 0.1 | 2.9 | x | x
COc1ccc(-c2ncc3ccccn23)cc1OC | -14 | x | 24% | x | x | x | x | 0.68 | 12
Cc1ccc(-n2ncc3c(=O)n(CC(=O)N4CCN(C(=O)c5ccco5)CC4)cnc32)cc1 | 1 | i | x | 6 | 11 | -2.2 | -1.4 | 0.66 | -4.6
CCC(=O)N1CCc2cc(Br)cc(S(=O)(=O)CCC(=O)NCC3CCCO3)c21 (centres undefined) | -4 | x | -4% | x | x | x | x | 0.71 | 0.0
O=C(COc1ccccc1)NS(=O)(=O)c1ccc(Cl)cc1 | -7 | i | x | 2 | 11 | -2.8 | -4.9 | 0.68 | 1.0
CC1(C)CC(=O)C2=C(C1)N1C(=C(C#N)C2c2ccc(Cl)cc2)N=C(N)c2ccccc21 (centres undefined) | -4 | i | 10% | 0 | -1 | 5.1 | 10 | 0.76 | 2.0
COc1ccccc1N1CCN(S(=O)(=O)CCNC(=O)/C=C/c2ccc3c(c2)OCO3)CC1 | x | i | x | 0 | -6 | 11 | 4.7 | x | 5.1
CCN(C[C@H]1N[C@@](Cc2ccccc2)(C(=O)OC)[C@H]2C(=O)N(C)C(=O)[C@@H]12)C(=O)Nc1ccc(C(F)(F)F)cc1 | -7 | i | -6% | -6 | -9 | 1.7 | -2.5 | 0.72 | 0.4
CC(Sc1nc2ccccc2c(=O)n1C)C(=O)NC1CCCCC1C (centres undefined) | -5 | x | 0% | x | x | x | x | 0.7 | -2.5
C=CCn1c(C)cc(C(=O)CN2C(=O)c3ccccc3C2=O)c1C | 3 | x | 2% | x | x | x | x | 0.68 | 1.0
C[C@H](CO)N1C[C@H](C)[C@@H](CN(C)C(=O)c2ccccn2)Oc2ncc(-c3ccccc3)cc2C1=O | x | i | x | 2 | 14 | -2.1 | -3.6 | x | x
COCCN1Cc2cccc(C(=O)Nc3ccc(S(=O)(=O)N4CCCCCC4)cc3)c2C1=O | 5 | i | 15% | 6 | 0 | -0.3 | -4.5 | 0.68 | -2.4

Compounds from the list above with a COOH group, in the order listed:
SMILES | ALR inh | FGF22 binding | Vif A3G | rRNA inh HTS | rRNA inh HTS OD600 | rRNA inh HTS RFP | MLL AF4-AF9 inh | Ecoli growth | HNF4A DNA FP
C[C@H]1CN([C@@H](C)CO)C(=O)c2cc(NC(=O)Cn3cnnn3)ccc2O[C@@H]1CN(C)Cc1ccc(C(=O)O)cc1 | x | i | x | 5 | 17 | 2.8 | -3.7 | x | x
O=C(O)CCCNC(=O)/C(=C\c1ccc(Cl)cc1)NC(=O)c1ccc(Br)cc1 | 0 | x | 13% | 10 | 4 | 10.0 | -1.3 | 0.67 | 1.0

Three entries from above, comma-delimited:
SMILES,ALR inh,FGF22 binding,Vif A3G,rRNA inh HTS,rRNA inh HTS OD600,rRNA inh HTS RFP,MLL AF4-AF9 inh,Ecoli growth,HNF4A DNA FP
C[C@H]1CN([C@@H](C)CO)C(=O)c2cc(NC(=O)Cn3cnnn3)ccc2O[C@@H]1CN(C)Cc1ccc(C(=O)O)cc1,x,i,x,5,17,2.8,-3.7,x,x
CC(C)N(C)CCOC(=O)c1ccccc1Cl,-1,i,12%,-2,2,-4.3,-0.1,0.63,-5.2
CCCCCCN(C(=O)CCCCCN1C(=O)NC(c2ccc(-c3ccccc3)cc2)C(C(=O)OCc2ccccc2)=C1C)C(C)C(=O)NCCCC (centres undefined),10,i,x,12,13,0.4,4.2,0.72,x

Continued.
SMILES | ALR inh | FGF22 binding | Vif A3G | rRNA inh HTS | rRNA inh HTS OD600 | rRNA inh HTS RFP | MLL AF4-AF9 inh | Ecoli growth | HNF4A DNA FP
CO[C@@H]1CN(C)C(=O)c2ccc(NC(=O)c3ccccc3F)cc2OC[C@H](C)N(C(=O)c2ccccc2F)C[C@@H]1C | x | i | x | 1 | 3 | 0.8 | 0.7 | x | x
COc1ccccc1C#Cc1ccc([C@H]2[C@@H](CO)N(C(=O)C3CC3)[C@H]2C#N)cc1 | x | i | x | 2 | 3 | -0.2 | 3.0 | x | x
Cc1noc(C)c1S(=O)(=O)Nc1ccc2c(c1)CC(=O)N([C@@H](C)CO)C[C@H](C)[C@H](CN(C)CC1CCCCC1)O2 | x | i | x | 4 | 6 | 0.6 | -1.5 | x | x
C[C@@H]1CCCCO[C@H](CN(C)C(=O)C2CCCCC2)[C@H](C)CN([C@@H](C)CO)C(=O)c2cc(NC(=O)c3ccccc3)ccc2O1 | x | i | x | -4 | -5 | 2.8 | 1.4 | x | x
COc1ccc2nc(NC(=O)C3CCCN(S(=O)(=O)c4cccs4)C3)sc2c1 (centres undefined) | -7 | x | -4% | x | x | x | x | 0.69 | 0.2
COc1ccc(CN2C(=O)C(Cc3ccccc3)Nc3ncnc(N4CCN(c5ccccc5)CC4)c32)cc1 (centres undefined) | 4 | i | x | 7 | 6 | -2.6 | 3.6 | 0.72 | 8.3
O=C(O)CN1C(=O)N/C(=C\c2cccn2-c2ccc(P(=O)(O)O)cc2)C1=O | 24 | i | x | 14 | 22 | 2.5 | -2.4 | x | -4.0
Cc1cccc(C(=O)Nc2nnc(COc3ccccc3)s2)c1 | -11 | i | x | 22 | 9 | -1.5 | -0.4 | 0.67 | -2.2
COc1ccccc1-c1cncc(NC(C)=O)n1 | x | i | x | 10 | 22 | -1.1 | -7.8 | x | -2.6
COC(=O)c1ccccc1NC(=O)c1cc[n+](C)cc1 | -1 | i | x | 3 | 7 | -1.1 | 0.2 | 0.66 | 0.2
CCOC(=O)C1CCCN(S(=O)(=O)c2ccc(Cl)nc2)C1 (centres undefined) | 2 | i | 2% | 1 | 5 | 0.0 | 9.0 | 0.71 | 3.4
CNC[C@@H]1Oc2ccc(NC(=O)Cn3cnnn3)cc2C(=O)N([C@@H](C)CO)C[C@@H]1C | x | i | x | 1 | -5 | 0.1 | -2.1 | x | x
Cc1noc(C)c1CSCC(=O)Nc1cc(S(=O)(=O)N2CCCCC2)ccc1OC(C)C | -1 | i | -8% | -7 | -8 | 5.8 | 1.9 | 0.68 | 2.3
CC(C)NC(=O)CN(Cc1ccc2c(c1)OCO2)C(=O)CCC(=O)Nc1ccccn1 | x | i | x | 3 | 6 | 3.7 | 1.1 | 0.63 | -2.6
CN(C)C(=O)C[C@H]1CC[C@H]2[C@H](COc3ccc(NC(=O)C4CCOCC4)cc3C(=O)N2C)O1 | x | i | x | 3 | 3 | -1.3 | -1.6 | x | x
COCCNC(=S)N1CCN(Cc2ccc3c(c2)OCO3)CC1 | -15 | i | x | 19 | 10 | 2.9 | -2.1 | 0.64 | -1.5
Cc1ccc(NC(=O)CSc2nc3[nH]ncc3c(=O)[nH]2)c(C)c1 | -4 | i | -2% | 3 | 3 | -1.9 | -4.4 | 0.67 | 2.3
COC(=O)C(CC(=O)c1ccc(Br)cc1)n1cccn1 (centres undefined) | -1 | i | 1% | 1 | -1 | -2.2 | 0.6 | 0.65 | 0.3
COc1ccc(-c2oc3c(c2C(=O)OCCCO)C(OCCO)CCC3)cc1 (centres undefined) | x | i | x | -7 | -12 | -2.6 | -0.7 | x | -1.2
CN(C(=O)COC(=O)c1ccc[nH]c1=O)C1CCCCC1 | -5 | i | 33% | 21 | 15 | 3.0 | 1.7 | 0.72 | 5.8
CC(=O)c1cccc(N2Cc3ccccc3C2=NC(=O)CCl)c1 | x | i | -6% | 10 | 10 | 1.2 | 2.4 | 0.65 | 2.8
COc1ccc2c(c1)O[C@H](c1ccc3c(c1)OCO3)[C@@H](OC(=O)N[C@H]1CCCc3ccccc31)C2=O | -28 | x | 5% | x | x | x | x | 0.81 | x
COc1ccc(CCNC(=O)C2CC(c3c(Cl)cccc3Cl)=NO2)cc1 (centres undefined) | -28 | i | -4% | -11 | -5 | -0.7 | 1.4 | 0.71 | 1.2
CCCCCCN(C(=O)CCCCCN1C(=O)NC(c2ccc(-c3ccccc3)cc2)C(C(=O)OCc2ccccc2)=C1C)C(C(=O)NCCCC)c1ccccn1 (centres undefined) | x | i | -6% | 7 | 19 | 3.1 | x | 0.72 | x
C/C=C/c1ccccc1[C@@H]1[C@H](C#N)N(C(C)=O)[C@H]1CO | x | i | x | 7 | 6 | 0.0 | -1.6 | x | x
CCN(Cc1ccccc1)C(=O)CCS(=O)(=O)c1cc2c(cc1Cl)NC(=O)CO2 | -27 | i | x | -2 | -13 | 1.1 | -5.3 | 0.71 | 2.6
N#CCCN(C(=O)Nc1ccc(Cl)c(Cl)c1)C1CCCCC1 | x | i | -6% | -64 | -79 | -20 | -1.9 | x | -2.7
O=C(O)C1CCC(CNCc2ccncc2)CC1 (centres undefined) | 1 | i | x | 13 | 27 | -0.8 | -1.5 | 0.64 | -0.5
